Bead autofluor = flagged as autofluorescent in microsphere protease counterscreen; compound autofluorescence counterscreen, microsphere flow cytometry; stronger effect = higher value; 3.1% of 360,000 active; fluorescence intensity (test concentration not listed); AID 624483;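 active means at least 3 SD above the mean of all compounds, about 16000 in these data; inconclusive means too few beads counted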;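 further: 100 nL of 1 mM stock went into each well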
ugtP null kill = growth inhibition of ugtP-null S. aureus, primary screen, RN4220 ugtP deletion, OD600; 0.54% of 330,000 active; growth inhibition, % (concentration not given with the values); 16 h; some inactives read as strong as hits; AID 1259309, 2017;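 active means z-score under -3 and OD600 up to 0.15 on both plates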;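 further: plate controls were untreated wells for no effect and antibiotic for full effect; wells of about 80 µL received 100 nL stock; the first replicate is given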
Mtb hypoxia inh = PubChem AID 1159583. M. tuberculosis hypoxia-regulated fluorescent reporter, fluorescence. fluorescence inhibition, % (no concentration beside the values). 0.1% of 300,000 active;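 active means 35 to 45% if threefold the growth effect, above 45% if 1.5-fold the growth effect; inactive means the rest, general growth blockers included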;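 further: wells of about 50 µL received 100 nL stock; 0% = vehicle wells and 100% = reference inhibitor wells; whole bacteria with a GFP reporter of the hypoxia response; strong numbers were not always called active; many hits fall short of the cut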
BJeLR lethal = MLPCN primary cell-based screen for lethality selective to Ras in HRASV12 cells; BJeLR (HRASV12) viability, CellTiter-Glo ATP luminescence, 48 h; reference of the scale not given here; inhibition, % (test concentration not listed); 0.17% of 300,000 active;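 active means replicate mean above 50%; inconclusive means above 50% but judged a plate artefact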;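 further: 50 nL library stock added to about 25 µL; numbers are from one replicate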
RN4220 kill = growth inhibition of S. aureus RN4220, primary screen, OD600 | 16 h | inhibition, % (concentration not given with the values) | 0.33% of 330,000 active;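 active means z-score of -3 or lower and OD600 up to 0.18 on both plates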;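 further: plate controls were untreated cells for no effect and reference antibiotic for full effect; stock transfer was 100 nL into about 80 µL; one replicate is shown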
PrP UTR inh = inhibition of PrP 5' UTR reporter expression; cell-based PrP 5' UTR mRNA reporter, plate reader; inhibition, % (concentration not given with the values); 0.35% of 340,000 active; AID 488862, 2010;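 active means every replicate at 50% or more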;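 further: 0 = median of the neutral control wells; tested in H4 reporter cells; numbers are from one replicate; inactives centre near -14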
Mtb hypoxia inh growth = also measured in Mtb hypoxia inh; calls as there; growth inhibition, %; measured here: M. tuberculosis growth (absorbance);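 0% = vehicle and 100% = reference antibiotic; read after six days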
* marks the source's active call; other numbers are inactive results; ? = inconclusive; . = no result given.

1: COc1ccc(S(=O)(=O)NC(Cc2ccc(Cl)cc2)C(=O)N2CC[C@@]3(O)CCCCC3C2)cc1 (stereo partly drawn)
2: O=C(NCCCc1ccccc1)c1ccc([N+](=O)[O-])cc1Cl
3: O=C(NC1CCCCCC1)C1C2C=CC3(CN(Cc4cccnc4)C(=O)C13)O2 (stereo not drawn)
4: CCOC(=O)C1=C(C)N=c2sc(=Cc3cc(OC)c(OC)c(OC)c3)c(=O)n2C1/C=C/c1ccccc1 (stereo not drawn)
5: COc1cc(C=NNC(=O)c2ccncc2)ccc1OCc1cnc(Cl)s1
6: CC(C)n1cc(C=NNC(=O)c2cc3c(ccc4ccccc43)o2)c2ccccc21

Assay by compound	1	2	3	4	5	6
Bead autofluor	.	3827	6194	.	.	.
ugtP null kill	-12	5	0	4	5	-16
Mtb hypoxia inh	4	7	7	8	.	-1
Mtb hypoxia inh growth	6	2	6	-2	.	13
BJeLR lethal	.	-3	-1	.	.	.
RN4220 kill	2.7	1.1	-13	7.5	5.4	-6.3
PrP UTR inh	.	-39	-21	.	.	.

7: CC[C@@H](C)[C@@H]1CN([C@@H](CN2CCC[C@H]2CN2C(N)=NC[C@H]2CC(C)C)C(C)C)C(=N)N1CCc1ccc(Cl)c(Cl)c1
8: COc1ccc(NC(=O)c2ccccc2SC)cc1OC
9: CCCNS(=O)(=O)c1ccc(CCC(=O)N2CCN(c3ccc(F)cc3)CC2)cc1
10: O=C(c1ccc2ccccc2n1)N1CCN(S(=O)(=O)c2ccccc2)CC1
11: CCCn1c2ccc(/C(C)=N\O)cc2c2cc(/C(C)=N/O)ccc21
12: CCOC(=O)N1CCN(C(=O)C2CCN(Cc3ccc(OC)cc3OC)CC2)CC1

Assay by compound	7	8	9	10	11	12
Bead autofluor	3083	2731	2432	3196	2973	3721
ugtP null kill	100*	-3	9	7	.	10
Mtb hypoxia inh	.	.	12	3	.	5
Mtb hypoxia inh growth	.	.	7	2	.	3
BJeLR lethal	.	4	-14	.	0	-6
RN4220 kill	100*	-1.2	3.2	7.0	.	2.1
PrP UTR inh	-17	-14	-29	-13	-8	0

13: CC(C)(NO)/C(=N/O)c1ccc(Br)cc1
14: O=C(NC(=S)N(Cc1ccccc1)Cc1ccccc1)c1ccccc1F
15: O=C(NCCCN1CCOCC1)c1cc2ccccc2oc1=O
16: COc1ccc(C(=O)NCCCNC(=O)c2ccccn2)cc1Br
17: COc1cc2c(cc1OC)C(c1ccccc1)N(C(=O)c1ccco1)CC2 (stereo not drawn)
18: COc1ccc(OC)c(C=NNC(=O)Cc2nc3ccccc3[nH]2)c1

Assay by compound	13	14	15	16	17	18
Bead autofluor	3842	4433	9159	6045	5984	.
ugtP null kill	.	94*	-3	1	16	7
Mtb hypoxia inh	.	-9	17	7	.	2
Mtb hypoxia inh growth	.	-4	6	-1	.	3
BJeLR lethal	-2	-4	-1	8	5	.
RN4220 kill	.	95*	3.5	1.2	0.0	1.7
PrP UTR inh	-28	16	-29	-33	-12	.

19: Cc1cc(=O)[nH]c(SCC(=O)NC2CCCCC2)n1
20: Clc1ccc2nc(C3CCN(Cc4nnnn4C4CCCCC4)CC3)[nH]c2c1
21: COc1cccc(/C=N/n2c(C)nc3ccccc3c2=O)c1O
22: CCOC(=O)C1CCN(C(=O)c2sc3nc(-c4ccccc4)cn3c2C)CC1
23: O=C(CNC(=O)N1CC(=O)Nc2ccccc21)Nc1ccccc1
24: Cc1cc(=O)oc2cc(OCC3CC(c4ccccc4Cl)=NO3)ccc12 (stereo not drawn)

Assay by compound	19	20	21	22	23	24
Bead autofluor	4604	6530	2406	10301	5582	9503
ugtP null kill	6	0	.	-9	5	-8
Mtb hypoxia inh	3	2	.	-23	-1	8
Mtb hypoxia inh growth	1	11	.	3	2	7
BJeLR lethal	-6	-2	-1	-8	-7	21
RN4220 kill	-0.9	4.5	.	2.6	2.4	20
PrP UTR inh	-10	-19	-9	-8	3	-20

25: NC(=O)C1CCCNc2c(F)cc([N+](=O)[O-])cc2C(=O)NC(CO)C(=O)NCC(=O)N1 (stereo not drawn)
26: CCCCN(Cc1ccco1)S(=O)(=O)c1csc(C(N)=O)c1
27: O=C(OCC(=O)N1CCCc2ccccc21)c1cc(S(=O)(=O)N2CCOCC2)ccc1Cl
28: COc1cccc(C(=O)C2CCCN(C(=O)CCc3scnc3C)C2)c1 (stereo not drawn)
29: COc1cccc(S(=O)(=O)Nc2ccc3c(c2)OCCO3)c1
30: CN(CC(=O)Nc1ccc(F)cc1)C(=O)c1ccncc1

Assay by compound	25	26	27	28	29	30
Bead autofluor	.	4669	.	5180	3610	?
ugtP null kill	-11	1	11	3	17	-11
Mtb hypoxia inh	4	-5	0	4	8	-5
Mtb hypoxia inh growth	6	-1	3	1	13	4
BJeLR lethal	.	7	-1	-18	-4	4
RN4220 kill	-0.9	0.8	-2.1	6.1	6.4	-5.8
PrP UTR inh	.	-6	7	-18	7	-41

31: Cc1cccc(N2CCN(c3ccc4cc(S(=O)(=O)N5CCCCC5)ccc4n3)CC2)c1C
32: CNC(=S)N1CCN(CCN=Cc2c(O)n(-c3ccc(C)cc3)c(=S)[nH]c2=O)CC1
33: CCCCn1c(N)c(N(CC(C)C)C(=O)c2cccc(S(=O)(=O)N(C)c3ccccc3)c2)c(=O)[nH]c1=O
34: COc1ccc(CC(=O)OCC(=O)NCCNC(=O)COC(=O)Cc2ccc(OC)cc2)cc1
35: CC(C)CCOP(N)(=O)Oc1ccccc1Cl (stereo not drawn)
36: Cc1[nH]n(-c2ccc(Cl)cc2)c(=O)c1C(=O)c1ccccc1

Assay by compound	31	32	33	34	35	36
Bead autofluor	5842	2926	4869	?	3959	4520
ugtP null kill	-12	0	0	3	-3	3
Mtb hypoxia inh	7	-1	4	3	-8	-9
Mtb hypoxia inh growth	4	-5	7	2	-4	-6
BJeLR lethal	5	-7	-8	2	-1	5
RN4220 kill	-3.4	-2.8	2.4	0.2	-1.5	26
PrP UTR inh	-15	-32	-13	-47	-9	-30

37: CN(CC(=O)Nc1ccccc1Cl)C(=O)CCSc1ccc(F)cc1
38: O=C(COc1ccccc1Cl)Nc1ccc2oc(=O)ccc2c1
39: COc1cc(N=Nc2ccccc2C(=O)O)ccc1O
40: COc1ccc(C(CC(=O)N2CCCC2)c2c(OC)cc(OC)c3ccc(=O)oc23)cc1 (stereo not drawn)
41: Cn1c(=O)cc(SCC(=O)NCCCN2CCN(c3ccccc3F)CC2)c2ccccc21
42: CCOC(=O)CCCCC(=O)c1[nH]c(=O)[nH]c1CSCCO

Assay by compound	37	38	39	40	41	42
Bead autofluor	4877	5054	3400	3090	3388	5536
ugtP null kill	-2	4	0	-7	5	10
Mtb hypoxia inh	5	2	48*	7	4	8
Mtb hypoxia inh growth	1	-6	14*	9	4	11
BJeLR lethal	-2	-11	-9	-5	-5	-1
RN4220 kill	0.8	2.2	4.4	4.0	-1.1	8.9
PrP UTR inh	-24	-14	-11	-12	-12	-8

43: COc1cccc(CC(=O)Nc2cc(C(F)(F)F)ccc2N2CCCC2)c1
44: CSCC(=O)N1CCCC(CNC(=O)c2ccc(-c3ccccc3)cc2)C1 (stereo not drawn)
45: NS(=O)(=O)c1ccc(CCNS(=O)(=O)c2ccc3c(c2)NC(=O)CO3)cc1
46: CCN(CC)C(=O)Cn1nc(C)c2ccccc2c1=O
47: CCc1nnc(NS(=O)(=O)c2ccc(NC(=S)Nc3ccc(F)cc3)cc2)s1
48: O=C(CNC(=O)c1ccc(Cl)c([N+](=O)[O-])c1)NCC1CCCO1 (stereo not drawn)

Assay by compound	43	44	45	46	47	48
Bead autofluor	5029	4407	5231	4998	2419	5219
ugtP null kill	4	12	3	3	3	2
Mtb hypoxia inh	-3	1	3	.	11	2
Mtb hypoxia inh growth	-4	2	-2	.	3	6
BJeLR lethal	2	-1	7	0	5	-2
RN4220 kill	2.9	-4.0	2.1	1.5	2.6	2.6
PrP UTR inh	4	-3	-9	9	-18	-20

49: Cc1n[nH]c(=S)n1/N=C/c1c(O)ccc2ccccc12
50: O=C(CCC1CCCN(C(=O)c2cc3ccccc3o2)C1)NCc1ccc(F)c(F)c1 (stereo not drawn)
51: CCN(CC(=O)NCC(=O)Nc1cccc(C)c1C)Cc1ccccc1
52: CCCN(CC(=O)Nc1ccccc1OC)C(=O)c1ccc(COc2ccccc2)o1
53: C/C(=N\NC(=O)C1CC1c1ccccc1)c1cccs1 (stereo not drawn)
54: O=C(OC1CCOC1=O)c1ccc(S(=O)(=O)N2CCCCCC2)cc1 (stereo not drawn)

Assay by compound	49	50	51	52	53	54
Bead autofluor	3136	3984	4012	9074	8143	6979
ugtP null kill	.	.	10	5	.	3
Mtb hypoxia inh	.	.	7	9	.	4
Mtb hypoxia inh growth	.	.	-2	0	.	1
BJeLR lethal	2	-11	5	.	-6	10
RN4220 kill	.	.	3.5	2.0	.	3.4
PrP UTR inh	1	-28	3	-13	-7	-23

Compound profiles (already shown). Values in the order: Bead autofluor	ugtP null kill	Mtb hypoxia inh	Mtb hypoxia inh growth	BJeLR lethal	RN4220 kill	PrP UTR inh
Listed for O=C(CCC1CCCN(C(=O)c2cc3ccccc3o2)C1)NCc1ccc(F)c(F)c1 (stereo not drawn) → 3984	.	.	.	-11	.	-28
Listed for Cc1n[nH]c(=S)n1/N=C/c1c(O)ccc2ccccc12 → 3136	.	.	.	2	.	1
Listed for CCN(CC(=O)NCC(=O)Nc1cccc(C)c1C)Cc1ccccc1 → 4012	10	7	-2	5	3.5	3
Listed for C/C(=N\NC(=O)C1CC1c1ccccc1)c1cccs1 (stereo not drawn) → 8143	.	.	.	-6	.	-7

Additional results follow:
55: CC(C)N1CCN(Cc2cccc3nonc23)CC1CCO (stereo not drawn)
56: CC(=O)/C(=N\Nc1ccc(Cl)cc1Cl)Sc1cccc2cccnc12
57: Cc1cc2oc(C(=O)Nc3nonc3C)c(C)c2cc1Cl
58: c1ccc(Cc2nc3ccccc3s2)cc1
59: Cc1cc(C)c(C)c(S(=O)(=O)N2CCC(C(=O)Nc3ccncc3)CC2)c1C
60: Cc1cccc(NC(=O)CSc2nnc(-c3ccncc3)n2CC2CCCO2)c1 (stereo not drawn)

Assay by compound	55	56	57	58	59	60
Bead autofluor	5546	7967	5957	4097	6188	4609
ugtP null kill	4	.	-6	-6	.	9
Mtb hypoxia inh	10	.	0	16	.	-2
Mtb hypoxia inh growth	2	.	7	20	.	-5
BJeLR lethal	-6	-5	2	.	2	-16
RN4220 kill	9.1	.	4.4	-1.8	.	6.3
PrP UTR inh	-12	-3	-36	-40	-17	8

61: Clc1cccc(C2NCCc3[nH]cnc32)c1 (stereo not drawn)
62: CCOc1ccc(NC(=O)C(NC(=O)c2ccccc2)C(C)CC)cc1 (stereo not drawn)
63: COC(=O)NC1CCC(NC(=O)OC)CC1 (stereo not drawn)
64: COc1ccc(-n2nc3c(c2NC(=O)C(C)Oc2ccccc2)CS(=O)C3)cc1 (stereo not drawn)
65: O=C(NCc1ccccc1)[C@]1(C(F)(F)F)CC(CCc2ccccc2)CCCO1 (stereo partly drawn)
66: O=C(COc1ccc(F)cc1)N/N=C/c1cccc2cccnc12

Assay by compound	61	62	63	64	65	66
Bead autofluor	4282	.	2026	?	.	?
ugtP null kill	-1	5	3	2	3	.
Mtb hypoxia inh	.	5	9	3	0	.
Mtb hypoxia inh growth	.	0	16	15	2	.
BJeLR lethal	0	.	5	-6	.	-5
RN4220 kill	-2.4	3.9	1.7	1.5	0.6	.
PrP UTR inh	-28	.	-16	0	.	-3

67: Cc1cc(OCC(=O)NCCc2ccc(S(N)(=O)=O)cc2)c2c(C)c(C)c(=O)oc2c1
68: O=C(CN1C(=O)COc2ccc(Cl)cc21)Nc1ccccn1
69: Cc1ccc(S(=O)(=O)NC2=C(N3CCN(Cc4ccccc4)CC3)C(=O)c3ccccc3C2=O)cc1
70: O=S(=O)(Cc1ccccc1)NCC1CCCO1 (stereo not drawn)
71: CCC(NS(=O)(=O)c1ccc2c(c1)Cc1cc(S(=O)(=O)NC(CC)C(=O)O)ccc1-2)C(=O)O (stereo not drawn)
72: Cc1[nH]c(C)c(S(=O)(=O)N2CCN(c3cccc(C(F)(F)F)c3)CC2)c1C(=O)N1CCCC1
73: CCOC(=O)N1CCN(C(=O)CN(C2CCCCC2)S(=O)(=O)c2c(C)cc(C)cc2C)CC1

Assay by compound	67	68	69	70	71	72	73
Bead autofluor	5173	3027	10295	8202	3779	5647	9497
ugtP null kill	3	8	-16	1	3	0	-12
Mtb hypoxia inh	-2	12	4	-2	2	-3	3
Mtb hypoxia inh growth	2	5	8	-1	1	6	7
BJeLR lethal	-5	-1	16	-1	3	3	1
RN4220 kill	-0.2	6.3	0.2	-0.1	3.8	4.1	-0.4
PrP UTR inh	0	-19	-39	19	-26	-9	-14

High-throughput results from PubChem BioAssay.
